Screens as filed in PubChem.
KCNQ2 inh – KCNQ2 channel blockers in CHO-K1 cells – cell-based, FluxOR thallium flux, B-score, primary screen (AID 2156). 310,000 tested, 1.1% active. 20 min; hits give low values; only compounds with negative scores are shown here; some inactives read as strong as hits. O88943. B-score at 10 µM;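 active = fluorescence ratio B-score at most minus 3 library SDs, with starting brightness B-score within 2 library SDs, cut at about -5.5 in these data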
Target sequence (O88943 whole entry, looked up): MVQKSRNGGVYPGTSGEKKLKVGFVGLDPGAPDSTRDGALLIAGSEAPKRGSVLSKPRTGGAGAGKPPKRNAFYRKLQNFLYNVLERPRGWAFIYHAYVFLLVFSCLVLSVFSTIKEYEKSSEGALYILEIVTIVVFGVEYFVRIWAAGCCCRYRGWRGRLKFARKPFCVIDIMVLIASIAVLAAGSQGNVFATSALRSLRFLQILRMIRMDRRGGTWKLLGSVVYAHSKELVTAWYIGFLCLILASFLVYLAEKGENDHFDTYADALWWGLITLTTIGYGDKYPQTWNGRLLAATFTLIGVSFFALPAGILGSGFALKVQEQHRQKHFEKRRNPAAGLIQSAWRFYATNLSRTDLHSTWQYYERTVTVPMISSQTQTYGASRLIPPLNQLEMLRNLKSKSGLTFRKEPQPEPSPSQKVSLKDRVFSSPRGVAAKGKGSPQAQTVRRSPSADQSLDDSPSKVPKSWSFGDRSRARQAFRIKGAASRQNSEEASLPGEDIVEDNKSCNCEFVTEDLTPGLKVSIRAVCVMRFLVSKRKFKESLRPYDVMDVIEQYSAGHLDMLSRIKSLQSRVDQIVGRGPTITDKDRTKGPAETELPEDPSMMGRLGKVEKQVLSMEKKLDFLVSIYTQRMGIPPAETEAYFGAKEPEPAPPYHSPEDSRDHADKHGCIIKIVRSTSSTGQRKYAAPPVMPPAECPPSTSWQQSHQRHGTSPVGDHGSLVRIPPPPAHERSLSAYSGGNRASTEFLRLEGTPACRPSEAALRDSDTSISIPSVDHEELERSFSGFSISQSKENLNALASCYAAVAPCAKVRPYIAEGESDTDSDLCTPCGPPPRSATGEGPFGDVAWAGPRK
KCNQ2 inh baseline – recorded beside KCNQ2 inh, whose call it bears; B-score; measured here: initial fluorescence intensity artifact check;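 brightness before thallium and not channel activity; 0 = typical well and far values either way flag optical interference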
Active calls of the source: *; i = inactive.

| compound | KCNQ2 inh | KCNQ2 inh baseline |
| --- | --- | --- |
| Cc1ccc(S(=O)(=O)N2CCOCC2)c2nsnc12 | i | -1 |
| CC1CCCN(S(=O)(=O)c2ccc3[nH]c4c(c3c2)CCCC4)C1 (stereo unspecified) | i | -2.2 |
| O=C(Cc1n[nH]c(=O)c2ccccc12)N/N=C/c1cc2c(cc1Cl)OCO2 | i | 0.63 |
| CCN(CC)S(=O)(=O)c1ccc(N2CCCC2)c(NC(=O)Cc2c(F)cccc2Cl)c1 | i | -0.35 |
| Nc1ccc(C(=O)Nc2ccc3nc(-c4ccncc4)[nH]c3c2)cc1 | i | 0.03 |
| O=C(/C=C/c1ccc(N2CCCCC2)c([N+](=O)[O-])c1)c1ccc(S(=O)(=O)N2CCCC2)cc1 | i | -0.48 |
| CCOC(=O)N1CCN(C(=O)CN(C)S(=O)(=O)c2ccc(OC)c(OC)c2)CC1 | i | -0.83 |
| COCC(C)n1c(SCc2nc(N)nc(Nc3ccccc3C)n2)nc2ccccc2c1=O (stereo unspecified) | i | -0.64 |
| N#CC1CC(c2ccccc2)Nc2cc(Cl)ccc2N1 (stereo unspecified) | i | 0.41 |
| O=c1[nH]c(=O)c2cc([N+](=O)[O-])cc([N+](=O)[O-])c2[nH]1 | i | 0.2 |
| C=CCOc1c(Cl)cc(CNc2ccc(N(C)C)cc2)cc1OC | i | -0.44 |
| CCNC(=O)NC(=O)C(C)Oc1ccc(Br)cc1Br (stereo unspecified) | i | 2.6 |
| COC(=O)c1cc(Br)c(=O)n(CCN2CCCCC2)c1 | i | -1.6 |
| CCN(CC)C(=O)CN(c1ccc(F)c(Cl)c1)S(C)(=O)=O | i | -1.7 |
| CCn1nnnc1NC(=O)c1cc(Cl)c(OC)c(Cl)c1 | i | 0.03 |

One compound at a time, as listed above.
`COCC(C)n1c(SCc2nc(N)nc(Nc3ccccc3C)n2)nc2ccccc2c1=O` (stereo unspecified) is entered as KCNQ2 inh = i; KCNQ2 inh baseline = -0.64
`Nc1ccc(C(=O)Nc2ccc3nc(-c4ccncc4)[nH]c3c2)cc1` is entered as KCNQ2 inh = i; KCNQ2 inh baseline = 0.03

Next part
| compound | KCNQ2 inh | KCNQ2 inh baseline |
| --- | --- | --- |
| Fc1ccc(-n2nnc(-c3ccccc3)n2)cc1 | i | 0.59 |
| COc1ccccc1C(=O)Nc1nsc(-c2ccccc2)n1 | i | -0.05 |
| Cc1[nH]c(=O)nc2c1CCC2 | i | 4.8 |
| COc1ccc(-c2cnn3c(N)c(S(=O)(=O)C(C)(C)C)cnc23)cc1 | i | 0.7 |
| COc1ccc(/C=C/C(=O)NCC(=O)n2nc(C)cc2C)cc1 | i | 0.78 |
| CC1CCN(S(=O)(=O)c2ccc(NC(=O)CSc3ncccc3C(=O)O)cc2)CC1 | i | 0.02 |
| CCOC(=O)Cc1csc(NC(=O)c2sc3nc4ccc(CC)cc4cc3c2N)n1 | i | 1.5 |
| CC1CN(C(=O)c2ccc(S(=O)(=O)Nc3ccccc3F)cc2)CC(C)O1 (stereo unspecified) | i | 0.29 |
| CCN(CC)S(=O)(=O)c1ccc(OC)c(NC(=O)Cn2cnc3c2c(=O)n(C)c(=O)n3C)c1 | i | 0.06 |
| O=C(NCC(c1ccco1)N1CCCCC1)c1ccc2c(c1)S(=O)(=O)c1ccccc1C2=O (stereo unspecified) | i | 0.62 |
| COc1ccc(N2CCN(CCCn3c(=S)[nH]c4ccccc4c3=O)CC2)cc1 | i | -0.44 |
| O=C(Cc1cccs1)N/N=C/c1ccccc1 | i | 0.37 |
| CC(C)NC(=O)c1ccccc1S(=O)c1ccccc1C#N (stereo unspecified) | i | 0.1 |
| CCCCN(CCCC)CC(O)CN(c1cc([N+](=O)[O-])ccc1OC)S(=O)(=O)c1ccccc1 (stereo unspecified) | i | -0.45 |
| CCCCOc1ccc(CSc2ncn[nH]2)cc1 | i | 0.94 |
| CCS(=O)(=O)N1CCC(C(=O)NCCCOC)CC1 | i | 1.2 |
| Cc1ccc(N2CC(C(=O)NCCS(=O)(=O)N3CCN(c4ccccc4)CC3)CC2=O)cc1C (stereo unspecified) | i | -0.15 |
| COc1ccc(C(=O)COC(=O)CNC(=O)c2cc(OC)cc(OC)c2)cc1 | i | -0.34 |
| CN(C)S(=O)(=O)c1ccc(NC(=O)CCNC(=O)c2ccc([N+](=O)[O-])cc2)cc1 | i | -2 |
| O=C(NC1CCCCC1)N(Cc1cc2cc3c(cc2[nH]c1=O)OCCO3)C1CCCCC1 | i | 0.97 |
| O=c1ccc2cc3c4c(c2o1)CCCN4CCC3 | i | 63 |
| CCCc1[nH]n(-c2nc3ccccc3s2)c(=O)c1C=NCC(C)C | i | 0.86 |
| COc1ccc(NC(=S)NC(=O)CC(C)C)c(OC)c1 | i | -0.2 |
| COc1ccc(OCC(O)CN(CC(O)COc2ccc(OC)cc2)c2cccc(O)c2)cc1 (stereo unspecified) | i | 0.82 |
| CCOC(=O)c1ccccc1NC(=O)CSc1nnc(Cc2cccn2C)n1-c1ccc(C)cc1 | i | 0.01 |
| COc1ccc(CNCC(O)COc2ccc(C(C)(C)c3ccccc3)cc2)cc1 (stereo unspecified) | i | 0.52 |
| O=C(OCCN=C1NS(=O)(=O)c2ccccc21)c1ccco1 | i | 1.3 |
| Cc1cc(=O)[nH]c2c1c(-c1ccccc1)nn2C | i | -0.04 |
| CCOc1ccc(S(=O)(=O)NC(C)C(=O)NC2CCCC2)cc1 (stereo unspecified) | i | 1.6 |
| COCCn1nnnc1C(c1ccc(O)c(OC)c1)N1CCc2ccccc2C1 (stereo unspecified) | i | 1.3 |
| O=C(CCc1ccccc1)NC1CCCc2ccccc21 (stereo unspecified) | i | -0.35 |
| COc1ccccc1OCC(=O)NCCNC(=O)COc1ccccc1OC | i | 2.1 |
| Cc1cc(C)c(C)c(S(=O)(=O)Nc2ccc(C(=O)N3CCCC3)cc2)c1C | i | -0.11 |
| O=C(Nc1ccccc1C(F)(F)F)c1ccsc1 | i | 1.5 |
| CCC(C)(C)n1nnnc1C(c1ccncc1)N1CCC(Cc2ccccc2)CC1 (stereo unspecified) | i | -1.2 |
| CN(CC(=O)Nc1c(Cl)cccc1Cl)C(=O)c1cc2ccccc2cc1O | i | -0.88 |
| Cc1cc(=O)oc(C)c1C(=O)NCCC(C)C | i | 2 |
| c1ccc(-c2cccs2)nc1 | i | -0.22 |
| O=S(=O)(NCC1CCN(S(=O)(=O)c2ccccc2)CC1)c1ccccc1 | i | 0.58 |
| CCCc1[nH]nc2c1C(c1ccc(Br)s1)C(C#N)=C(N)O2 (stereo unspecified) | i | 0.06 |
| Cc1ccc2cccc(NC(=S)NC(=O)c3ccccc3)c2n1 | i | -0.15 |
| S=C(NCCc1ccncc1)Nc1ccccc1 | i | 1.4 |
| COc1cc(/C=N/N2CCN(c3ccc(Cl)cc3)CC2)cc(OC)c1OC(C)=O | i | 1.2 |
| Cc1ccc(C)c(NC(=O)C2Cc3ccccc3CN2C(=O)OCc2ccccc2)c1 (stereo unspecified) | -6.2* | 0.03* |
| COc1cc(C(=O)NC(=S)Nc2ccccc2N2CCCC2)cc(OC)c1OC | i | -0.68 |
| CCOc1ccc(N(CC(=O)Nc2cc(C)ccc2C)S(=O)(=O)c2c(C)[nH]c(=O)[nH]c2=O)cc1 | i | -1.2 |
| CCN(CC)S(=O)(=O)c1cccc(-c2nnc(SCc3nc4ccccc4s3)o2)c1 | i | -0.38 |
| CC(C)CCOC(=O)C[N+](C)(C)CCOC1CC2CCC1(C)C2(C)C (stereo unspecified) | i | -1.7 |
| C=CCn1c(O)c(/C=C2\C=NN=C2c2ccccc2)sc1=S | i | 2.7 |
| Cc1ccc(S(=O)(=O)NCc2c(-c3ccccc3)noc2C)cc1 | i | 0.02 |
| COc1ccc(/C=C/C(=O)Nc2nc(C)c(C(=O)N(C)C)s2)cc1 | i | 0.57 |
| CCCOc1ccc(/C=C/C(=O)O)cc1OC | i | -2.2 |
| COc1ccc(N2CCN(CC(=O)NC(=O)NC(C)(C)C)CC2)cc1 | i | -0.65 |
| CC(NC(=O)COc1ccc(N(C)S(=O)(=O)c2ccccc2)cc1)c1ccccc1 (stereo unspecified) | i | 0.27 |
| CCOc1ccc2nc(NC(=O)Nc3ccccc3)sc2c1 | i | 1.2 |
| COc1cccc(CNc2nc3nc(C)c(Cl)c(=O)n3[nH]2)c1 | i | -0.17 |
| Cc1cccc(/N=C/c2c(O)ccc3oc4c(c23)CCCC4)n1 | i | -0.75 |
| COC(C(=O)N/N=C(\C)c1ccc(C)cc1)c1ccccc1 (stereo unspecified) | i | 1.6 |
| CC1c2cc3c(cc2CCN1C(=O)c1ccc(C(F)(F)F)cc1)OCCCO3 (stereo unspecified) | i | -0.04 |
| COC(=O)c1ccc(CSc2nc3c(c(=O)n2-c2ccc(F)cc2)SCC3)o1 | i | 0.34 |

Reprinted at random: 4 records from the list
| compound | KCNQ2 inh | KCNQ2 inh baseline |
| --- | --- | --- |
| COc1cccc(CNc2nc3nc(C)c(Cl)c(=O)n3[nH]2)c1 | i | -0.17 |
| CC(NC(=O)COc1ccc(N(C)S(=O)(=O)c2ccccc2)cc1)c1ccccc1 (stereo unspecified) | i | 0.27 |
| CCN(CC)S(=O)(=O)c1cccc(-c2nnc(SCc3nc4ccccc4s3)o2)c1 | i | -0.38 |
| COc1ccc(/C=C/C(=O)Nc2nc(C)c(C(=O)N(C)C)s2)cc1 | i | 0.57 |

(continued)
| compound | KCNQ2 inh | KCNQ2 inh baseline |
| --- | --- | --- |
| Cc1nc([N+](=O)[O-])c(Sc2nc3ccc([N+](=O)[O-])cc3[nH]2)n1Cc1ccccc1 | i | -0.1 |
| CSc1nc2nc3c(cn2n1)C(=O)CC(c1ccccc1)C3 (stereo unspecified) | i | -2.9 |
| O=C(NNC(=O)c1cc(-c2ccccc2)nn1-c1ccccc1)c1ccccc1 | i | -0.63 |
| COc1ccccc1/C=N/NC(=O)CSc1ccc2ccccc2n1 | i | -1.2 |
| CC(=O)OC1COC(n2ccc3cc([N+](=O)[O-])ccc32)C(OC(C)=O)C1OC(C)=O (stereo unspecified) | i | 0.58 |
| COCc1cc(N2CCN(c3ccccc3F)CC2)nc(-c2ccccc2)n1 | i | -0.28 |
| O=C(Nc1cccc(C(=O)N2CCCC2)c1)c1ccccc1Cl | i | 6.4 |
| C=CCN1C(=O)C2(OCCCO2)c2ccccc21 | i | -1.4 |
| COc1ccc(C(C)=O)cc1COc1cccnc1[N+](=O)[O-] | i | 2.1 |
| CC(C)(C)c1ccc(Cn2c(=O)cnc3ccccc32)cc1 | i | 0.05 |
| O=[N+]([O-])c1ccc(Cl)cc1N1CCCCC1 | i | -1 |
| COc1ccccc1CN(C)C(=O)C(NC(=O)Cc1cccc2ccccc12)C(C)C (stereo unspecified) | i | -0.74 |
| Cc1ccc(NC(=O)Cn2nc(C(F)(F)F)c3c2CCC3)cc1 | i | -0.04 |
| COc1ccc(-n2c(C)cc(-c3cn4cccc(C)c4n3)c2C)cc1 | i | -0.76 |
| CC1CCCCN1CCNC(=O)c1ccc2c(=O)n(Cc3ccc(Cl)cc3)c(=S)[nH]c2c1 (stereo unspecified) | i | -0.9 |

Next results follow.
canonical_smiles	KCNQ2 inh	KCNQ2 inh baseline
COc1cccc(/C=N/Nc2nnc(C)n2N)c1OCc1ccccc1Cl	i	0.48
C=CCn1c(CC(=O)OC)csc1=Nc1ccc(C(C)=O)cc1	i	-0.02
COc1ccc(N(CC(=O)Nc2cccc(SC)c2)S(C)(=O)=O)cc1Cl	i	-0.88
Cc1ccc(N(CC(=O)N2CCN(c3ccc(F)cc3)CC2)S(=O)(=O)c2c(C)nn(C)c2C)cc1	i	0.03
Cc1ccc2oc(=O)n(CCCOc3ccccc3)c2c1	i	1.4
CCOC(=O)Cn1cc(C(=O)OC)c2ccccc21	i	1.4
CC(C)c1ccc(/C=C/C(=O)N2CCCCCC2)cc1	i	2.6
O=C(Nc1ccccc1)c1cc(S(=O)(=O)Nc2cccnc2)ccc1Cl	i	2.7
COC1(OC)C(/C=C/c2ccc(Cl)cc2)C(C#N)(C#N)C1(OC)OC (stereo unspecified)	i	-1.9
CC(C(=O)N1CCOCCOCCOCC1)N1C(=O)c2ccccc2C1=O (stereo unspecified)	i	-0.77
CCCCC(=O)Nc1cccc2c1C(=O)N(c1ccccc1)C2=O	i	-2.6
CCc1cc(C(=O)N2CCCC(CNS(=O)(=O)c3cccs3)C2)n(C)n1 (stereo unspecified)	i	1.5
Cc1ccc(S(=O)(=O)NCCOc2cc(C)ccc2C)cc1	i	-0.14
COc1ccc(C(=O)CN2C3=NCCCN3c3ccccc32)cc1OC	i	3.1
Cn1nc(-c2ccccc2)c(-c2nc(-c3ccc(Cl)cc3)no2)c1Cl	i	0.7
Cc1ccc(C(=O)NCc2cccnc2)cc1S(=O)(=O)Nc1ccccc1	i	0.05
O=C(Nc1nc2ccccc2[nH]1)c1ccccc1[N+](=O)[O-]	i	2.8
CCOC(=O)N1CCN(C(=O)COC(=O)c2ccc(O)cc2O)CC1	i	2.1
CC(=O)c1ccc(N2CCN(S(=O)(=O)c3csc(C(N)=O)c3)CC2)cc1	i	-0.55
CCN(CC)C(=O)C(=O)c1cn(CC(=O)NCc2ccc3c(c2)OCO3)c2ccccc12	i	-0.19
COc1ccc(NC(=O)Cn2ccc3c(OC)cccc3c2=O)cc1	i	-0.03
CC(C)(C)c1ccc(C(=O)Nn2cnnc2)cc1	i	-0.21
CCN1CCN(Cc2ccc(NC(=O)Nc3ccc(SC)cc3)cc2)CC1	i	0.05
COC(=O)[C@@H]1CCCN1Cc1nc(Cc2ccccc2F)no1	i	2.1
Cc1ccccc1CSc1nnc(C)n1N	i	-0.02
CCc1nnc(NC(=O)CSc2ccc(-c3ccc(C)cc3)nn2)s1	i	-0.24
CS(=O)(=O)N1CCCC(C(=O)N2CCOCC2)C1 (stereo unspecified)	i	0.34
O=[N+]([O-])c1ccc(S(=O)(=O)Nc2ccc(-c3ccc(N4CCCC4)nn3)cc2)cc1	i	-0.22
CCSc1ncc(C#N)c(N)n1	i	-1.7
Cc1ccc(CC2CC(=O)N(CCc3ccc4c(c3)OCO4)C2=O)cc1 (stereo unspecified)	i	-1.9

This is a subset, so the mix of outcomes need not match the whole.
